Compound activity as filed in PubChem.
HPGD block – qHTS Assay for Inhibitors of HPGD (15-Hydroxyprostaglandin Dehydrogenase) | 15-hydroxyprostaglandin dehydrogenase [NAD(+)] (Homo sapiens), P15428 | purified HPGD, NADH fluorescence kinetic, PGE2 substrate | Potency, µM, for inactives: top-dose activity change, negative = inhibition, actives largely listed as inhibitors | 150,000 tested, 4.3% active | AID 894, 2007; active = well fitted inhibition curve with a large enough effect (not every such curve was filed as active); inconclusive = small, poorly fitted or top-dose-only effect, or another doubt; inactive = no such curve, though single readings can be large or run the other way;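 note: top concentration of the series not given in the record; plate controls included wells without enzyme; inactives centre near -10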
Target sequence (P15428 whole entry, looked up): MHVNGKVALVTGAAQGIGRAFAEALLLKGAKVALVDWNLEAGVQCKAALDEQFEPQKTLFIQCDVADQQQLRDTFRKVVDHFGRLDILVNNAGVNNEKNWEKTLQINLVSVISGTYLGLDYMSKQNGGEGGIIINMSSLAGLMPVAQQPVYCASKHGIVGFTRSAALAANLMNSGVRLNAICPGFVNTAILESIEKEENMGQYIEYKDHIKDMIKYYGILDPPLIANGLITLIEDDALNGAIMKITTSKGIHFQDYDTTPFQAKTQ
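NADH formation kinetics: reaction with 30 uM PGE2 and 1 mM NAD+ (final), 20 nM enzyme, Tris-HCl pH 8 with Tween 20, after 15 min compound preincubation at room temperature. Fluorescence change, last versus first of five reads.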
Numbers without * were called inactive; ? = inconclusive. % is set by controls: 0 for no effect and ±100 for the full control effect; potency is the fitted concentration of half-maximal effect.

SMILES | HPGD block
O=C(Nc1ccc(N2CCCC2)cc1)c1cccc(-c2cc3ccccc3oc2=O)c1 | 8.9µM*
O=C(O)CC(=O)Nc1ccccc1 | -2%
COC(=O)C1=NN(c2ccc(C)cc2)C2(S1)SC(C(C)=O)=C(C)N2c1ccccc1 (stereo unspecified) | -7%
CS(=O)(=O)NCc1ccc(C(=O)NCCOc2ccccc2)cc1 | -17%
O=C(Nc1ccc(N2CCCCC2)c(Cl)c1)c1ccc2c(c1)OCCO2 | -11%
COC(=O)C1=C(C)[C@@H](O)[C@@H](C)[C@](C)(c2cc(OC)c(C)c(OC)c2COc2ccccc2)O1 | -10%
CCOc1cc(/C=C2/NC(=O)N(CC(=O)Nc3cccc(C)c3)C2=O)ccc1OC | ?
CCOc1ccc(/C=C2\C(=O)c3ccccc3OC2c2ccccc2)cc1 (stereo unspecified) | -15%
C=CCOc1c(Cl)cc(CNCCC)cc1Cl | -8%
Cc1sc2ncnc(SCC(=O)NC(=O)NCc3ccco3)c2c1C | ?
Brc1ccc(N=C(c2ccccc2)c2ccncc2)cc1 | -5%
CCCCCn1c(N2CCN(c3cccc(Cl)c3)CC2)nc2c1c(=O)[nH]c(=O)n2C | -4%
COc1ccccc1N1CCN(C(=O)COc2cc(C)ccc2C)CC1 | -11%
COc1ccc2nc(NCCCNC(=O)c3cc(OC)c(OC)c(OC)c3)c(C#N)cc2c1 | ?
CCOC(=O)c1cccc(NC(=O)Nc2cc(OC)ccc2OC)c1 | -6%
CCCc1cc(C(=O)Nc2nccs2)cs1 | 10µM*
Cc1ccc(S(=O)(=O)C2(S(=O)(=O)c3ccc(C)cc3)CCCC2)cc1 | -10%
CCOC(=O)CSc1nc2sc3c(c2c(=O)[nH]1)CCCC3 | 16µM*
O=S(=O)(c1ccc(Br)s1)N1CCN(c2ccccc2)CC1 | -16%
C/C(CC1CC2=C(CC1(C)C)C(C)(C)CCC2)=N\NC(N)=S (stereo unspecified) | ?
CC(C)NC(=O)N1CC[C@@]2(CCCN(C(=O)c3cccc(F)c3)C2)C1 | -6%
Cc1cc(NC(=O)COC(=O)CCC(=O)c2ccc(F)cc2)no1 | -12%
CCOC(=O)c1cc(-c2ccncc2)nc2c1c(C)nn2-c1ccccn1 | -10%
O=C(O)CCC(=O)NCc1cn(-c2ccccc2)nc1-c1cccc(Br)c1 | -7%
COc1ccc(CCNC(=O)C(C(=O)c2ccc(F)cc2)n2ccccc2=O)cc1OC (stereo unspecified) | -17%
COc1ccc(NC(=O)CSc2nc(N3CCCCC3)nc(N3CCCCC3)n2)cc1 | -9%
CCOC(=O)CN1C=C(c2ccc3ccccc3n2)C(C[N+](=O)[O-])c2ccccc21 (stereo unspecified) | 0%
O=C(NCCC1=CCCCC1)C1CCN(c2nc3ccccc3o2)CC1 | -21%
COc1ccc2c(c1)CC/C2=N\NC(=O)c1ccccc1 | -17%
COc1ccccc1NC(=O)Cn1ncc2c1-c1ccccc1OC2 | -8%
Cc1ccc(CNC(=O)C2=NNC(=O)CC2)cc1 | -2%
CC12COC3(C(=O)Nc4ccc(Cl)cc4)CC1CCC32C (stereo unspecified) | -9%
Cc1ccc(-c2nc3ccccc3[nH]2)cc1NC(=O)c1ccco1 | -9%
CN(Cc1cnn(C)c1)C(=O)C1CCCCC1C(=O)O (stereo unspecified) | 2%
Cc1ccc(C(=O)c2oc3ccccc3c2N)cc1 | -3%
Cc1c(NC(=O)Nc2cccc(Cl)c2)c(=O)n(-c2ccccc2)n1C | -7%
COC(=O)CCC(NC(=O)c1cc(C)oc1C)C(=O)OC (stereo unspecified) | -2%
CCc1nnc(NC(=O)CCC(=O)N2CCN(C3CCCCC3)CC2)s1 | -5%
CC1=NN(c2ccccc2)C(=O)/C1=C\c1ccc(Oc2ccc([N+](=O)[O-])cc2[N+](=O)[O-])cc1 | 8.9µM*
CCN1CCN(C(=O)CCCCCn2c(=O)[nH]c3cc(C(=O)OC)ccc3c2=O)CC1 | ?
COc1ccc(S(=O)(=O)N2CCOCC2)cc1Cl | -7%
COc1cc(NC(=O)NCCN2CCN(c3ccc(Cl)cc3)CC2)ccc1C | 2%
COc1cc(-c2cc(N)n(S(=O)(=O)c3ccc(F)cc3)n2)cc(OC)c1OC | -2%
CCCCn1c(NCCO)nc2ccccc21 | -10%
COc1cccc(-c2nnc3sc(-c4ccccn4)nn23)c1 | 22µM*
CCCc1cc(C(N)=O)c(NC(=O)c2ccoc2C)s1 | ?
Cn1c(SCCCC(=O)c2ccccc2)nnc1-c1ccncc1 | -11%
N=C(N)SCCON1C(=O)c2ccccc2C1=O | -14%
CC(=O)Nc1ccc(N/C=C/C(=O)C(C)(C)C)cc1 | ?
Cc1nc(NCc2ccc3c(c2)OCO3)c2oc3ccccc3c2n1 | -12%

Part of the list above in order of length of the SMILES, lowest first.
SMILES | HPGD block
CCCCn1c(NCCO)nc2ccccc21 | -10%
CCCc1cc(C(N)=O)c(NC(=O)c2ccoc2C)s1 | ?
Cc1nc(NCc2ccc3c(c2)OCO3)c2oc3ccccc3c2n1 | -12%

(cont.)
SMILES | HPGD block
O=C(CSc1nc2cc(Cl)ccc2s1)c1cc2ccccc2o1 | ?
Cc1ccc(NC(=O)CCNS(=O)(=O)c2ccc3c(c2)oc(=O)n3C)cc1 | -7%
Cc1ccc(NC(=O)c2onc(C)c2Cl)cc1 | 0%
CCN(CC)C(=S)Nc1ccc([N+](=O)[O-])cc1 | -8%
Cc1cc(C)nc(NC(=O)CSc2nn(C)c(=S)s2)n1 | ?
C1=C(N2CCOCC2)/C(=C/c2nc3ccccc3[nH]2)CC1 | ?
CCOC(=O)N1CCC(NC(=O)c2cc(C(=O)Nc3cccc(OC)c3)ccc2CO)CC1 | -3%
CC(=O)OC[C@@]1(O)C[C@@]23CC[C@@H]4c5ccoc5CC[C@@]4(C)[C@@H]2CCC1C3 | -4%
Brc1ccccc1-c1nnc(CSc2nnnn2-c2ccccc2)o1 | 16µM*
CCNC(=O)CCc1nc(-c2ccc(C(C)(C)C)cc2)no1 | ?

Some of the entries above, reformatted.
Molecule	HPGD block
COc1cccc(-c2nnc3sc(-c4ccccn4)nn23)c1	22µM*
CCCc1cc(C(N)=O)c(NC(=O)c2ccoc2C)s1	?
Cn1c(SCCCC(=O)c2ccccc2)nnc1-c1ccncc1	-11%
N=C(N)SCCON1C(=O)c2ccccc2C1=O	-14%
CC(=O)Nc1ccc(N/C=C/C(=O)C(C)(C)C)cc1	?
Cc1nc(NCc2ccc3c(c2)OCO3)c2oc3ccccc3c2n1	-12%
O=C(CSc1nc2cc(Cl)ccc2s1)c1cc2ccccc2o1	?
Cc1ccc(NC(=O)CCNS(=O)(=O)c2ccc3c(c2)oc(=O)n3C)cc1	-7%
Cc1ccc(NC(=O)c2onc(C)c2Cl)cc1	0%
CCN(CC)C(=S)Nc1ccc([N+](=O)[O-])cc1	-8%
Cc1cc(C)nc(NC(=O)CSc2nn(C)c(=S)s2)n1	?
C1=C(N2CCOCC2)/C(=C/c2nc3ccccc3[nH]2)CC1	?
CCOC(=O)N1CCC(NC(=O)c2cc(C(=O)Nc3cccc(OC)c3)ccc2CO)CC1	-3%
CC(=O)OC[C@@]1(O)C[C@@]23CC[C@@H]4c5ccoc5CC[C@@]4(C)[C@@H]2CCC1C3	-4%
Brc1ccccc1-c1nnc(CSc2nnnn2-c2ccccc2)o1	16µM*
CCNC(=O)CCc1nc(-c2ccc(C(C)(C)C)cc2)no1	?

Other entries follow.
SMILES | HPGD block
CCCCCCNC(=O)CSc1nccn1Cc1ccccc1 | 1%
Cc1cc(/C=C2/C(=O)NN(c3ccccc3)C2=O)c(C)n1-c1cccc(O)c1 | ?
CCN(CC)S(=O)(=O)c1ccc(/C=C/C(=O)OCC(=O)Nc2cccc3ccccc23)cc1 | -12%
CCOC(=O)c1sc(NC(=O)c2ccc(C)o2)nc1C | 20µM*
O=C(c1nc2ncccn2n1)N1CCc2ccccc2C1 | 0%
CCCN(CCC)C(=O)CCS(=O)(=O)c1cccc2nsnc12 | -6%
COc1ccccc1CNS(=O)(=O)c1c(C)[nH]c(=O)[nH]c1=O | 0%
NC(=O)NC(=O)CSc1nc(-c2ccccc2)c(-c2ccccc2)n1CC1CCCO1 (stereo unspecified) | -1%
COc1ccccc1[C@@H]1C(c2ccc(F)cc2)=NN(c2ccc(Br)cc2)[C@H]1C(=O)N1CCOC1=O | -19%
CC(=O)NC1C(c2nc3ccccc3s2)=C(c2ccccc2)C(=O)N1c1ccc(C)cc1 (stereo unspecified) | -24%
COc1cc(OC)c2c(-c3cccc(-c4ccc(OC(F)(F)F)cc4)c3)cc(=O)oc2c1 | -2%
Cc1ccc(S(=O)(=O)NCCCCCC(=O)N(C)C)cc1 | -12%
CCCCn1nnnc1SCC(=O)N1CCCC1 | -2%
COc1cc(C(=O)NC2CC3CCCC(C2)N3CC(=O)Nc2ccccc2)cc(OC)c1OC (stereo unspecified) | -8%
O=C(NCCc1c[nH]c2ccccc12)c1cc(S(=O)(=O)N2CCCCC2)ccc1N1CCOCC1 | ?
O=C(O)c1ccc(CSCc2ccccc2F)o1 | -6%
Cc1cc(NC(=O)COC(=O)CCCOc2ccc(Cl)cc2C)no1 | -7%
Cn1c(SCC(=O)NCc2ccco2)nc2ccccc2c1=O | -7%
Cc1cc(NC(=O)CSc2nnc(-c3ccco3)n2Cc2ccccc2)no1 | -17%
CC(C)NC(=O)NS(=O)(=O)c1cnccc1NC1CC2CCC1C2 (stereo unspecified) | -3%
COC(=O)c1cc(OC)c(OC)cc1NC(=S)N1CCCCC1 | -6%
CCC1CCCCN1C(=O)COc1cc(=O)n(C)c2ccccc12 (stereo unspecified) | ?
COC(=O)CSc1nnc(SCc2ccc(Cl)cc2)s1 | -26%
Cc1cccc(CCNC(=O)C2CCC(=O)N2Cc2ccc(F)cc2)c1 (stereo unspecified) | -7%
O=S(=O)(Nc1cccc(-c2cn3cccnc3n2)c1)c1ccc(-c2ccccc2)cc1 | ?
CCN1CCN(C(=O)CCc2nc3ccccc3c(=O)[nH]2)CC1 | 3%
O=C(O)c1cnn2c1NC(c1ccc(F)cc1)CC2C(F)(F)F (stereo unspecified) | -5%
C/C(=C\c1ccccc1)CN(C)CCN(C)C | -4%
CCCCNC(=S)N(C)/N=C/c1ccc(OCc2ccc(C(=O)OC)cc2)c(OC)c1 | 1%
CC(C)Oc1ccccc1OCCN(C)C | -13%
Cc1[nH]c2ccccc2c1C(=O)CN1CCC2(CC1)OCCO2 | -6%
CCn1c(COc2ccc(C)cc2)nnc1SCC(=O)Nc1cc(OC)ccc1OC | -6%
O=C(/C=C\Nc1ccccn1)c1ccccc1 | -9%
COc1ccc(C(=O)Nn2cnnc2)c(OC)c1 | 2%
COc1ccc(C2=NOC(C(=O)NC(C)(C)C)C2)cc1 (stereo unspecified) | -2%
COc1ccc(CN2CCN(CC(O)Cn3c4ccccc4c4ccccc43)CC2)cc1 (stereo unspecified) | -8%
Cc1cc(NC(=O)CSc2ccc3nnc(-c4ccccc4)n3n2)no1 | ?
CCn1c(SCC(=O)Nc2ccc(OCc3ccccc3)cc2)nnc1-c1ccco1 | -16%
O=c1cc[nH]c2cc(C(F)(F)F)ccc12 | -10%
CCOC(=O)CC(C#N)c1c[nH]c2ccccc12 (stereo unspecified) | -3%
Cc1noc(C(=O)NCc2cccnc2)c1Cl | -5%
O=C1CN(C(=O)c2cnccn2)c2ccccc2N1 | -13%
c1ccc2c(c1)ncn2CCCCOc1ccc2c(c1)CCC2 | ?
O=C(Nc1cccc2ccccc12)c1cn(-c2ccccc2)nc1-c1cccs1 | -24%
CC(=O)c1cc(C)ccc1OC(=O)CCN1C(=O)C2C3c4ccccc4C(c4ccccc43)C2C1=O (stereo unspecified) | -19%
C=CCn1c(SCC(=O)NCC(=O)OCC)nnc1-c1cccc(OC)c1 | -6%
O=C(CSc1nnc(-c2ccccn2)n1Cc1ccccc1)NC1CCCC1 | -3%
Cc1nn(CC(=O)NCCN2CCOCC2)c(=O)c2ccccc12 | -9%
O=S(=O)(Nc1nccs1)c1ccc(NS(=O)(=O)c2cccs2)cc1 | -9%
COc1cc2c(cc1OC)C(c1ccc(N)cc1)=NNC(=O)C2 | -20%

Next section:
SMILES | HPGD block
CCN(CC)C(=O)CSc1nnc(CCNC(=O)OC(C)(C)C)o1 | -7%
OCC(O)CSc1nc(-c2ccccc2)nc2c1CCC2 (stereo unspecified) | -8%
Cc1cccc(Nc2nnc(C)c(=O)n2N)c1 | -10%
Cc1cc(/C=C2/C(=O)N(C)C(=S)N2C)c(C)n1C1CC1 | -23%
Cc1[nH]n(-c2ccccc2)c(=O)c1C(c1ccc(C(=O)O)cc1)c1c(C)[nH]n(-c2ccccc2)c1=O | ?
CCCCCCCCCCCCCC(=O)O[C@H](CC(=O)O)C[N+](C)(C)C | 1%
Cn1c(=O)oc2cc(S(=O)(=O)N3CCC(C(=O)N4CCN(c5ccccc5)CC4)CC3)ccc21 | -12%
Cc1ccc(CNC(=O)C2(NC(=O)Nc3ccc(C)cc3)CCCCC2)cc1 | -4%
Cc1ccc([N+](=O)[O-])cc1NC(=O)C1CCN(S(C)(=O)=O)CC1 | -10%
NC(=O)C1CCN(C(=O)c2ccc(Oc3ccccc3)cc2)CC1 | -1%
Cc1ccc(Cn2cc(C(=O)c3ccc(F)cc3)c(=O)c3cc4c(cc32)OCCO4)cc1 | -2%
CCSc1ccccc1C(=O)Nc1cccc(OC)c1 | ?
COCc1cc(=O)n2[nH]c(C)cc2n1 | ?
CCc1cccc(C)c1NC(=O)Cn1c(NCCO)nc2ccccc21 | -7%
Cc1cc(Cl)ccc1Oc1nc(-c2ccccc2)ncc1S(C)(=O)=O | -12%
Cc1cccc(C)c1N1CCN(S(=O)(=O)c2ccc(F)cc2)CC1 | -15%
CCOc1cc(N2CCOCC2)c(OCC)cc1NC(=O)Cc1cn2ccsc2n1 | -6%
N#Cc1c(N)nc2c3c(sc(=N)c2c1N)NC(=O)CC3c1ccccc1Cl (stereo unspecified) | -5%
NCCNC(=S)S | 3.5µM*

An excerpt; count on the stated rates, not on these rows.
